Vaccinia stage: blocks a specific stage of Vaccinia orthopoxvirus infection, primary screen, cell-based, single point; Vaccinia-infected cells, mCherry/Venus stage reporter fluorescence; stronger effect = lower value; some inactives read as strong as hits; activity change (mCherry), % (test concentration not listed); actives 0.01% (n = 89,000); AID 1053133, 2014;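 active = mCherry past -33% and 40 or more points under the early reporter, replicates agreeing; inconclusive = past -33% without that gap or agreement; tested in A549 cells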;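 also: scaled between vehicle wells and reference inhibitor wells; 23 nL library stock went into each well; one replicate is shown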
Vaccinia stage Venus: second read-out of Vaccinia stage, no call of its own (marks repeat the call); activity change (Venus), %; measured here: Venus reporter, other viral stage;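 negative = less Venus signal; first of two replicates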
* = called active by the depositor; ? = inconclusive; . = no result given; & = joins results of further samples. Not all compounds are listed; count on the stated rates, not on these rows.

SMILES	Vaccinia stage	Vaccinia stage Venus
COc1ccc(-c2cnc3c(c2)C(=O)N([C@@H](C)CO)C[C@@H](C)[C@@H](CN(C)C(=O)C2CCC2)O3)cc1	-4	-4
C[C@H](CO)N1C[C@H](C)[C@H](CN(C)C(=O)CCN2CCCCC2)Oc2ncc(C#Cc3ccccn3)cc2C1=O	8	6
COC(=O)C[C@H]1CC[C@H]2[C@H](COc3ccc(NC(=O)c4ccc(OC)cc4)cc3C(=O)N2C)O1	0	2
CCCNC(=O)N1CC(=O)N2[C@H](C1)[C@@H](c1ccc(C#Cc3cccc(OC)c3)cc1)[C@@H]2CO	?	.
CNC[C@@H]1Oc2ncc(C#Cc3ccccc3)cc2C(=O)N([C@H](C)CO)C[C@@H]1C	-3	14
C[C@@H]1CN([C@@H](C)CO)C(=O)c2cc(NC(=O)C3CCCCC3)ccc2O[C@@H](C)CCCCO[C@H]1CN(C)C(=O)NC1CCCCC1	-20	-20
COc1cccc(CNC(=O)C[C@@H]2CC[C@H](NC(=O)C3CCOCC3)[C@@H](CO)O2)c1	5	10
COc1ccc(C#Cc2cnc3c(c2)C(=O)N([C@H](C)CO)C[C@@H](C)[C@H](CN(C)C(=O)CN(C)C)O3)cc1	11&-4	7&5
C[C@@H]1CN([C@@H](C)CO)S(=O)(=O)c2ccc(-c3ccncc3)cc2O[C@@H]1CN(C)C(=O)CC1CC1	5	1
C[C@@H]1CN([C@H](C)CO)S(=O)(=O)c2ccc(-c3ccc(C(=O)N(C)C)cc3)cc2O[C@@H]1CN(C)C(=O)C1CCC1	-3	-6
C[C@H]1CN([C@@H](C)CO)C(=O)c2cccc(NC(=O)c3ccc(-c4nccs4)cc3)c2O[C@@H]1CN(C)Cc1ccc(-c2ccccc2)cc1	-27	-21
Cc1ccc(-c2ccc([C@@H]3[C@@H](CO)N4CCCCN(C(=O)c5ccncc5)C[C@H]34)cc2)cc1	-9	-19
C[C@H](CO)N1C[C@H](C)[C@@H](CN(C)C)Oc2cc(Br)ccc2S1(=O)=O	11	3
C[C@H](CO)N1C[C@H](C)[C@H](CN(C)C(=O)Cc2ccccn2)Oc2ncc(-c3cccc(C(=O)N(C)C)c3)cc2C1=O	13	9
COCC(=O)Nc1ccc2c(c1)C(=O)N(C)[C@H]1CC[C@H](CC(=O)NCCc3ccncc3)O[C@H]1CO2	9	15
CO[C@@H]1CN(C)C(=O)c2ccc(NS(=O)(=O)c3ccc(C)cc3)cc2OC[C@H](C)NC[C@H]1C	11	13
O=C(C1CCC1)N1CC(=O)N2[C@@H](CO)[C@H](c3ccc(-c4cccnc4)cc3)[C@@H]2C1	12	2
Cc1ccc(-c2ccc([C@@H]3[C@@H](CO)N4C(=O)CN(C(=O)c5cccnc5)C[C@@H]34)cc2)cc1	-6	-34
Cc1ccc(S(=O)(=O)N(C)C[C@@H]2Oc3ccc(NC(=O)CCC(F)(F)F)cc3CC(=O)N([C@H](C)CO)C[C@H]2C)cc1	-3	2
O=C(CN1CCOCC1)N1CCCCN2[C@H](CO)[C@@H](c3ccc(-c4ccccc4)cc3)[C@@H]2C1	24	11

Copied from above, 10 compounds:
SMILES	Vaccinia stage	Vaccinia stage Venus
COc1ccc(-c2cnc3c(c2)C(=O)N([C@@H](C)CO)C[C@@H](C)[C@@H](CN(C)C(=O)C2CCC2)O3)cc1	-4	-4
C[C@H](CO)N1C[C@H](C)[C@H](CN(C)C(=O)CCN2CCCCC2)Oc2ncc(C#Cc3ccccn3)cc2C1=O	8	6
COC(=O)C[C@H]1CC[C@H]2[C@H](COc3ccc(NC(=O)c4ccc(OC)cc4)cc3C(=O)N2C)O1	0	2
CCCNC(=O)N1CC(=O)N2[C@H](C1)[C@@H](c1ccc(C#Cc3cccc(OC)c3)cc1)[C@@H]2CO	?	.
CNC[C@@H]1Oc2ncc(C#Cc3ccccc3)cc2C(=O)N([C@H](C)CO)C[C@@H]1C	-3	14
C[C@@H]1CN([C@@H](C)CO)C(=O)c2cc(NC(=O)C3CCCCC3)ccc2O[C@@H](C)CCCCO[C@H]1CN(C)C(=O)NC1CCCCC1	-20	-20
COc1cccc(CNC(=O)C[C@@H]2CC[C@H](NC(=O)C3CCOCC3)[C@@H](CO)O2)c1	5	10
COc1ccc(C#Cc2cnc3c(c2)C(=O)N([C@H](C)CO)C[C@@H](C)[C@H](CN(C)C(=O)CN(C)C)O3)cc1	11&-4	7&5
C[C@@H]1CN([C@@H](C)CO)S(=O)(=O)c2ccc(-c3ccncc3)cc2O[C@@H]1CN(C)C(=O)CC1CC1	5	1
C[C@@H]1CN([C@H](C)CO)S(=O)(=O)c2ccc(-c3ccc(C(=O)N(C)C)cc3)cc2O[C@@H]1CN(C)C(=O)C1CCC1	-3	-6

Remaining list, next part.
SMILES	Vaccinia stage	Vaccinia stage Venus
CO[C@H]1CN(C)C(=O)c2ccc(NS(C)(=O)=O)cc2OC[C@@H](C)N(C)C[C@H]1C	5	3
C[C@@H]1CN([C@@H](C)CO)C(=O)c2cc(C#CC3(O)CCCC3)cnc2O[C@@H]1CN(C)Cc1ccncc1	44	21
CCCN(C)C[C@@H]1Oc2ncc(-c3ccccc3)cc2C(=O)N([C@H](C)CO)C[C@@H]1C	8&-19	2&-13
C/C=C/c1ccc([C@H]2[C@@H](CO)N(C(=O)C3CC3)[C@@H]2CNC(=O)CN(C)C)cc1	4	1
C[C@H](CO)N1C[C@H](C)[C@H](CN(C)C(=O)Nc2cccc3ccccc23)Oc2c(NC(=O)c3ccc(-c4nccs4)cc3)cccc2C1=O	17	1
CC(=O)NC[C@H]1[C@@H](c2ccc(-c3cccc(F)c3)cc2)[C@@H](CO)N1C(=O)C1CC1	1	-11
CO[C@@H]1CN(C)C(=O)c2ccc(NC(=O)c3cc(C)on3)cc2OC[C@@H](C)N(S(=O)(=O)c2ccc(F)cc2)C[C@H]1C	-14	-3
CC(C)NC(=O)N(C)C[C@@H]1OCCCC[C@@H](C)Oc2ccc(NS(C)(=O)=O)cc2C(=O)N([C@H](C)CO)C[C@H]1C	13	4
C[C@H](CO)N1C[C@H](C)[C@@H](CN(C)Cc2ccccn2)Oc2ncc(-c3cccc(F)c3)cc2C1=O	-6	-7
COc1ccc(NC(=O)N(C)C[C@H]2Oc3ccc(NC(=O)CCCCCC(=O)Nc4ccccc4N)cc3C(=O)N([C@H](C)CO)C[C@@H]2C)cc1	20	4
Cc1ccc(S(=O)(=O)N[C@@H]2C=C[C@H](CC(=O)NCCN3CCCCC3)O[C@@H]2CO)cc1	-2	5
COc1ccccc1CNC(=O)C[C@@H]1C[C@@H]2c3cc(NC(=O)c4cccnc4)ccc3O[C@@H]2[C@@H](CO)O1	4	10
CCCNC(=O)Nc1ccc2c(c1)OC[C@H](C)N(CC1CCCC1)C[C@H](C)[C@@H](OC)CN(C)C2=O	-7	-8
C[C@@H]1CCCCO[C@@H](CN(C)C(=O)Cc2ccccc2)[C@H](C)CN([C@@H](C)CO)C(=O)c2cc(NS(=O)(=O)c3ccccc3)ccc2O1	-13	-18
C[C@@H]1CN([C@@H](C)CO)C(=O)c2cc(NC(=O)CCC(F)(F)F)ccc2O[C@@H]1CN(C)S(=O)(=O)c1ccc(F)cc1	-3	-3
C/C=C/c1ccc([C@@H]2[C@H](CO)N(Cc3cncnc3)C23CN(C(C)=O)C3)cc1	0	10
COc1ccc(S(=O)(=O)N(C)C[C@H]2OCCCC[C@H](C)Oc3ccc(NC(=O)Nc4ccc5c(c4)OCO5)cc3C(=O)N([C@@H](C)CO)C[C@@H]2C)cc1	9	4
CCC(=O)N1CC[C@@H]2[C@H]1c1cc(-c3ccccc3)ccc1N(C)[C@@H]2CO	15	12
CN(C)C(=O)[C@H]1[C@H](CO)[C@H]2Cn3c(ccc(-c4ccccc4F)c3=O)[C@@H]1N2C	8	6
O=C(NCC1CC1)[C@@H]1[C@@H](CO)[C@@H]2Cn3c(ccc(-c4ccc(F)cc4)c3=O)[C@H]1N2	5	-3
C[C@H](CO)N1C[C@H](C)[C@H](CN(C)Cc2ccc(C(F)(F)F)cc2)Oc2ccc(NS(=O)(=O)c3ccc(F)cc3)cc2CC1=O	-16	-9
C[C@@H]1CN([C@H](C)CO)C(=O)c2cc(NC(=O)NC3CCCCC3)ccc2O[C@@H](C)CCCCO[C@@H]1CN(C)S(=O)(=O)c1cn(C)cn1	26	19
COc1cccc(S(=O)(=O)N2C[C@@H](O)COC[C@H]3O[C@H](CC(=O)N4CCOCC4)CC[C@@H]32)c1	16	4
COCC(=O)N1[C@@H](CO)[C@@H](c2ccc(-c3ccccc3)cc2)C12CN(C(C)=O)C2	10	9
COc1ccc(NC(=O)N(C)C[C@H]2OCCCC[C@@H](C)Oc3ccc(NS(C)(=O)=O)cc3C(=O)N([C@@H](C)CO)C[C@@H]2C)cc1	6	-2
COc1ccc(S(=O)(=O)N(C)C[C@@H]2Oc3cc(-c4ccccc4OC)ccc3S(=O)(=O)N([C@H](C)CO)C[C@H]2C)cc1	-34	-26
CCNC(=O)[C@@H]1[C@@H](CO)[C@@H]2Cn3c(ccc(-c4ccccc4)c3=O)[C@H]1N2CCC(F)(F)F	2	8
C/C=C/c1ccccc1[C@H]1[C@@H](C#N)N(c2nc(CC)cs2)[C@H]1CO	-4	4
O=C(C[C@@H]1C[C@@H]2c3cc(NS(=O)(=O)c4ccc(F)cc4)ccc3O[C@@H]2[C@@H](CO)O1)NCc1ccccc1F	3	-1
Cc1ccc(S(=O)(=O)Nc2ccc3c(c2)CC(=O)N([C@H](C)CO)C[C@H](C)[C@H](CN(C)C(=O)Nc2cccc4ccccc24)O3)cc1	28	22
N#C[C@H]1[C@H](c2ccc(C#Cc3ccc(F)cc3)cc2)[C@H](CO)N1C(=O)C1CCC1	-30	-11
COC(=O)C[C@@H]1CC[C@@H]2[C@H](COc3ccc(NS(=O)(=O)c4ccc(C)cc4)cc3C(=O)N2C)O1	-28	-28
CO[C@@H]1CN(C)C(=O)c2ccc(NC(=O)NC(C)C)cc2OC[C@@H](C)N(C(=O)CC2CC2)C[C@@H]1C	32	21
C[C@H]1CCCCO[C@H](CN(C)Cc2ccccc2)[C@@H](C)CN([C@@H](C)CO)C(=O)c2cc(NC(=O)Nc3cccc4ccccc34)ccc2O1	?	.
C[C@@H]1CN([C@H](C)CO)S(=O)(=O)c2ccc(C#CCC3CCCC3)cc2O[C@@H]1CN(C)C(=O)CN(C)C	?	.
CO[C@@H]1CN(C)C(=O)c2ccc(NC(=O)Nc3ccccc3F)cc2OC[C@@H](C)N(C)C[C@@H]1C	0	-3
C[C@@H]1CN([C@H](C)CO)C(=O)c2cc(-c3cncnc3)cnc2O[C@@H]1CN(C)C(=O)Cc1ccccc1	4	8
O=C(C[C@H]1C[C@@H]2c3cc(NC(=O)CC4CC4)ccc3O[C@@H]2[C@@H](CO)O1)NCC(F)(F)F	3	-1
C[C@@H]1CN([C@H](C)CO)C(=O)Cc2cc(NS(C)(=O)=O)ccc2O[C@H]1CN(C)C(=O)NC1CCCCC1	10	16
C[C@H](CO)N1C[C@H](C)[C@H](CN(C)Cc2ccc(-c3ccccc3)cc2)Oc2c(NC(=O)Nc3ccc4c(c3)OCO4)cccc2C1=O	6	2
COc1ccccc1-c1ccc([C@@H]2[C@H](CO)N(C(C)=O)C23CN(C(C)=O)C3)cc1	14	19
C[C@H]1CCCCO[C@@H](CN(C)C(=O)c2ccncc2)[C@@H](C)CN([C@@H](C)CO)C(=O)c2cc(NS(=O)(=O)c3ccccc3)ccc2O1	32	19
O=C(Cc1ccccc1)N1CC2(C1)[C@H](c1ccccc1)[C@H](CO)N2Cc1cccc(F)c1	-18	-4
C[C@@H]1CN([C@H](C)CO)S(=O)(=O)c2ccc(/C=C/c3ccccc3)cc2O[C@@H]1CN(C)C(=O)NC1CCCCC1	?	.
O=C(C[C@@H]1C=C[C@H](NS(=O)(=O)c2ccccc2F)[C@@H](CO)O1)NCCCN1CCOCC1	14	10
C[C@@H]1CCCCO[C@H](CN(C)C(=O)Nc2ccc(C(F)(F)F)cc2)[C@@H](C)CN([C@@H](C)CO)C(=O)c2cc(NC(=O)C3CCCCC3)ccc2O1	-9	-5
O=C(C[C@@H]1C=C[C@@H](NS(=O)(=O)c2ccccc2)[C@H](CO)O1)NCCN1CCCCC1	19	6
C[C@H](CO)N1C[C@H](C)[C@H](CN(C)S(C)(=O)=O)Oc2c(NS(=O)(=O)c3cccs3)cccc2C1=O	18	22
CO[C@@H](CN(C)Cc1ccc2c(c1)OCO2)[C@H](C)CN(C(=O)Nc1ccc(F)cc1)[C@@H](C)CO	3	6
C[C@H]1CN([C@@H](C)CO)C(=O)Cc2cc(NC(=O)C3CCCCC3)ccc2O[C@H]1CN(C)Cc1ccc2c(c1)OCO2	6	7
CNC[C@H]1Oc2c(NS(=O)(=O)c3c(C)noc3C)cccc2C(=O)N([C@H](C)CO)C[C@H]1C	-3	-2
C[C@@H]1CCCCO[C@H](CN(C)S(=O)(=O)c2cccs2)[C@H](C)CN([C@H](C)CO)C(=O)c2cc(NC(=O)CCCN(C)C)ccc2O1	-8	-11
Cc1noc(C)c1S(=O)(=O)Nc1cccc2c1O[C@@H](CN(C)C(=O)Nc1cccc3ccccc13)[C@@H](C)CN([C@H](C)CO)C2=O	-9	-2
C[C@@H]1CCCCO[C@H](CN(C)CC2CCCCC2)[C@H](C)CN([C@@H](C)CO)C(=O)c2cc(NC(=O)C3CCCCC3)ccc2O1	?	.
C[C@H]1CN([C@@H](C)CO)C(=O)Cc2cc(NS(=O)(=O)c3cn(C)cn3)ccc2O[C@@H]1CN(C)C(=O)Nc1cccc2ccccc12	-1	11
Cc1noc(C)c1NC(=O)N(C)C[C@H]1OCCCC[C@H](C)Oc2ccc(NC(=O)Cc3ccccc3)cc2C(=O)N([C@@H](C)CO)C[C@H]1C	28	18
C[C@@H]1CN([C@@H](C)CO)C(=O)CCCn2nncc2CO[C@@H]1CN(C)S(=O)(=O)c1ccccc1	22	24
O=C(C[C@@H]1CC[C@H](NC(=O)c2ccncc2)[C@H](CO)O1)NCC1CCCCC1	-11	-5

Compound activity deposited in PubChem by Broad Institute.
